Assay outcomes as filed in PubChem BioAssay.
PTAP-TSG101 blk – inhibitors of HIV-1 PTAP binding to human TSG101, validation. Fluorescence polarization, FITC-PTAP peptide/Tsg101, 20 min. Q99816. Potency, µM (top dose mostly 115 µM), for the others: top-dose activity change, negative = inhibition, most hits filed as inhibitors. 44,000 tested, under 10 active; note: potency is the fitted concentration of half-maximal effect; 0% is about no effect
Target sequence (Q99816 whole entry, looked up): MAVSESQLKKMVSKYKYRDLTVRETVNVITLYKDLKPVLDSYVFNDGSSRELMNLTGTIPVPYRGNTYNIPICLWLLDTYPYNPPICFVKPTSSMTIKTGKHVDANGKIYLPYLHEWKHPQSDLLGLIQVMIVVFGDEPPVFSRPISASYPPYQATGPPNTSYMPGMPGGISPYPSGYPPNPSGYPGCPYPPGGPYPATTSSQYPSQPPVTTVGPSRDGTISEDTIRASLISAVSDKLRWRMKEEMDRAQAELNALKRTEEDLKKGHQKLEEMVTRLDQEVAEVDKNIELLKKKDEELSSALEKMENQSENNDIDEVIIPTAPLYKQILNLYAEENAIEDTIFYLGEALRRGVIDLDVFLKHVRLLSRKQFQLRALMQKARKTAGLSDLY
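Fluorescence polarization binding of Tsg101 binding domain (10 uM final) to FITC-labeled PTAP-motif peptide (50 nM final) in HEPES pH 7.5/NaCl/Tween 20/EDTA/TCEP buffer; 20 min at r.t. Actives by curve class, <25 µM, efficacy <60% inhibition.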
B2AR arrestin ag – beta-arrestin recruitment by human beta2-adrenergic receptor ligands. HTLA Tango cells, beta-arrestin recruitment, luciferase luminescence, 18 h. 44,000 tested, under 10 active. AID 1347077. Potency, µM (doses to about 46.1 µM), without a hit: at the top dose activation, actives largely listed as activators;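 note: potency is the fitted concentration of half-maximal effect; 0% = DMSO and full agonism = EC100 isoproterenol or metaproterenol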
Target sequence (P07550 whole entry, looked up): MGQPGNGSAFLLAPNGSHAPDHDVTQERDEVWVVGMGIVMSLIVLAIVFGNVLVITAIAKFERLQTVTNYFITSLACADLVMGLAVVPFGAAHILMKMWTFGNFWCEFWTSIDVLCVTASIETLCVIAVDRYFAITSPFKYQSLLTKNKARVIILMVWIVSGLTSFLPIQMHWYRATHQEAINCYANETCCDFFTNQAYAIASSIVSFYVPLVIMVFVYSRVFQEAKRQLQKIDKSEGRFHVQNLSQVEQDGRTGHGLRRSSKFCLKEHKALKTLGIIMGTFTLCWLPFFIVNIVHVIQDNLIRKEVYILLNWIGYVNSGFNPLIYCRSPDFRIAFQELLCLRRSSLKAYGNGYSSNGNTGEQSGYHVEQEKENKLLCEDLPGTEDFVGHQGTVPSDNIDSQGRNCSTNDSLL
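Tango cells expressing recombinant beta2-AR and beta-arrestin were treated with compounds (up to 46 microM titration) in DMEM with 1% FBS for 18 hr at 37 degrees C. Beta-arrestin recruitment drove tTA-dependent luciferase, read by luminescence; curves were fitted and classed.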
p53null 32C tox – kills p53 null cells at the permissive temperature; H1299-neo p53 null cells, ATP luminescence, 24 h, 32C; Potency, µM (titrated, usually from 46.1 µM), without a hit: at the top dose activity change, negative = cytotoxicity, actives largely listed as cytotoxic; hit rate 0.62% among 55,000; AID 903;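 note: potency is the fitted concentration of half-maximal effect; 0% = DMSO only and -100% = full killing by 100 µM tamoxifen; nearly all actives have a fitted effect of over 55% in size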
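Cytotoxicity: H1299-neo (no p53), 32C, 24 h treatment. Concentrations up to 46 uM. Readout cellular ATP, luminescence. Normalization to DMSO basal and tamoxifen 100 uM maximal kill.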
GALK inh – inhibits human galactokinase. AID 1347072. recombinant GALK, Kinase-Glo ATP luminescence, 1 h. P51570. Potency, µM (doses to about 57.5 µM), for inactives: at the highest dose activity, negative = inhibition, usual class: inhibitors. 44,000 tested, under 10 active;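 note: plate controls were full GALK reaction for no effect and reaction lacking GALK for full effect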
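Human GALK (5 nM) was incubated with 35 uM ATP and 100 uM galactose in 20 mM HEPES pH 8.0 with MgCl2, NaCl, DTT and BSA for 1 h at room temperature. Remaining ATP was measured by Kinase-Glo Plus luminescence.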
FH mod – Identification of activators of human fumarate hydratase by quantitative high-throughput screening; Fumarate hydratase, mitochondrial (Homo sapiens), P07954; FH coupled MDH/diaphorase resazurin fluorescence, 15 min; Potency, µM (titrated, usually from 79.9 µM), without a hit: at the highest dose activity change, negative = inhibition, most hits filed as inhibitors; hit rate 0.22% among 54,000; AID 1347055, 2019; note: potency is the fitted concentration of half-maximal effect; % is set by controls: 0 for no effect and ±100 for the full control effect; the screen sought activators but most active calls are inhibition curves; nearly all actives have a fitted effect of over 45% in size
p53null 39C kill – selectivity test: cytotoxicity in p53 null cells, nonpermissive temperature | H1299 p53-null (neo) cells, 39C, ATPlite viability, 24 h | Potency, µM (doses to about 46.1 µM), for inactives: top-dose activity, negative = cell killing, actives largely listed as cytotoxic | hit rate 0.97% among 55,000 | AID 904;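 note: potency is the fitted concentration of half-maximal effect; 0% = DMSO only and -100% = full killing by 100 µM tamoxifen; nearly all actives have a fitted effect of over 50% in size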
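Concentration-response (up to 46 uM) was run for 24 h at the nonpermissive 39C on H1299-p53A138V or H1299-neo cells. ATP content was measured with ATPlite luminescence. AC50 values were Hill-modeled after normalizing between DMSO and 100 uM tamoxifen killing.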
Active calls of the source: *; ? = inconclusive; . = not tested or not shown; [ ] = remark or other dose. Calls come from the whole dose curve; as a rule, active = well fitted curve in the direction sought with a large enough effect; inconclusive = small, poorly fitted or top-dose-only effect, or another doubt; inactive = no such curve, though single readings can be large; an effect the other way counts as inactive or inconclusive. A portion of the library (hit frequency here may not be typical).

SMILES	PTAP-TSG101 blk	B2AR arrestin ag	p53null 32C tox	GALK inh	FH mod	p53null 39C kill
CC1CCN(S(=O)(=O)c2cccc(C(=O)NC3CCS(=O)(=O)C3)c2)CC1 (stereo not drawn)	1.3%	-0.3%	-0.8%	0.5%	2.2%	-29.9%
Cc1ccccc1NC(=O)c1sc2nc(-c3ccncc3)ccc2c1N	2.1%	0.3%	?	-11.7%	-20.4%	?
CCOc1ccc(/C=C/c2nc(C#N)c(N3CCN(CC)CC3)o2)cc1	-1.7%	1.7%	17.2%	-1.3%	-20.1%	-11.1%
N#C/C(=C\c1ccc(Cl)cc1Cl)c1nc(-c2cccc(Cl)c2)cs1	-3.1%	-0.9%	1.4%	1.6%	0.1%	32.8%[activator]
CCN(CC)C(=O)c1sc2c(c1C)c(=O)n(CCc1ccccc1)c(=O)n2Cc1ccc(F)cc1Cl	1.4%	-2.5%	11.3%	-0.4%	5.1%	6.2%
CN1CCN(C(=O)c2ccc3c(c2)N(Cc2ccc(C(F)(F)F)cc2)C(=O)c2ccccc2S3)CC1	-4.8%	0.7%	-5.6%	-0.8%	-5.1%	?
COc1ccc(CCN2C(=O)c3[nH]nc(-c4ccccc4O)c3C2c2ccccc2)cc1 (stereo not drawn)	0.4%	1.4%	14.1%	6.0%	1.9%	14.0%
Cc1ccc(C)c(CN2CCCN(Cc3cc(C)ccc3C)S2(=O)=O)c1	2.6%	0.6%	3.8%	-3.9%	-12.6%	5.6%
COc1ccc(-c2cc(C(C)=O)c(C)n2CCC(=O)NCc2ccc(F)cc2)cc1	2.8%	6.7%	5.8%	-4.0%	-8.7%	22.9%
Cc1cccc(N2C(=O)N(CC(=O)C(C)(C)C)c3ccccc3S2(=O)=O)c1C	-1.9%	-2.5%	-7.6%	-1.5%	-13.8%	-8.5%
COc1ccc(C2=NC(C)(C)N(CC(=O)Nc3cc(OC)cc(OC)c3)C2=O)cc1	3.0%	-3.6%	5.1%	4.1%	-11.4%	-5.0%
COc1ccc(C2C(C(=O)Nc3cccnc3)=C(C)Nc3nc(SCc4ccccc4)nn32)cc1 (stereo not drawn)	1.5%	0.6%	0.7%	0.0%	2.6%	-7.6%
CCOc1ccc(-n2c(/C=C/c3cccc(F)c3)nc3cc(OC)c(OC)cc3c2=O)cc1	-4.4%	-0.2%	7.3%	-0.4%	-19.2%	22.6%
Cc1ccccc1CN1C(=O)c2ccccc2Sc2ccc(C(=O)N3CCOCC3)cc21	4.4%	3.6%	11.5%	-3.3%	-36.2%	25.3%
Cc1ccc(CNC(=O)C(CC(C)C)N2Cc3ccccc3C2=O)cc1 (stereo not drawn)	-6.4%	0.6%	-1.7%	6.4%	22.7%	-3.7%
Cc1c(CNC2CCCCC2)c(C(=O)O)c(C)n1Cc1ccccc1F	-4.3%	-2.6%	1.0%	0.6%	-0.7%	0.5%
O=C(CN(c1cc(C(F)(F)F)ccc1Cl)S(=O)(=O)c1ccccc1)NCCc1ccccc1	-3.1%	0.6%	15.4%	2.9%	-15.9%	16.1%
CCOc1ccc(NC(=O)CN2C(=O)C(c3ccc(Cl)cc3)=NC2(C)C)cc1	-1.3%	-3.1%	-7.9%	-1.1%	1.1%	-13.0%
COc1ccc(OC)c(NC(=O)c2cc(=O)c3c(C)cc(C)cc3o2)c1	-3.5%	0.2%	-4.5%	1.5%	-5.8%	-0.8%
O=C(Nc1ccc(F)cc1)c1csc2c1CCCCC2	1.1%	-1.9%	15.8µM*	6.6%	-3.7%	?
O=C(COc1ccccc1-c1nc(-c2ccccc2)no1)Nc1cccc([N+](=O)[O-])c1	-3.2%	-2.1%	-13.1%	2.0%	11.0%	-9.8%
COc1ccc(Cl)cc1NC(=O)c1sc2nc(-c3ccc(OC)c(OC)c3)ccc2c1N	-3.5%	0.3%	2.0%	2.2%	-3.2%	-24.3%
Cc1cc(C)c2c(=O)cc(C(=O)Nc3sc4c(c3C#N)CCCC4)oc2c1	-2.2%	-0.5%	-14.2%	3.4%	?	?
CCc1nc2ccc(C(=O)NCCc3ccc(OC)c(OC)c3)cc2nc1CC	-5.4%	-0.7%	-3.1%	-2.3%	-15.5%	11.0%
COc1ccccc1CNc1nccn(-c2ccc(F)cc2)c1=O	1.5%	-0.6%	0.9%	-1.7%	4.1%	-18.9%
COc1ccc2cc(-c3nc4ccc(C(=O)O)cc4[nH]3)c(=O)oc2c1	-2.6%	-2.4%	1.58µM*	2.1%	-28.0%	-2.1%
CCN(CC)CCCNC(=O)c1ccc2c(Cl)c3c(nc2c1)CCCC3	-5.8%	0.1%	-0.4%	-0.2%	4.7%	?
O=C(CCSCc1ccccc1Cl)NCCc1ccccc1	-5.9%	1.2%	1.3%	3.6%	0.2%	-8.3%
CC(NC(=O)C1=Cc2ccccc2OC1)c1ccccc1 (stereo not drawn)	1.1%	0.0%	-3.5%	-1.9%	13.2%	-9.3%
CCCCNC(=O)CSc1nc2nc(C)c(Cc3c(F)cccc3Cl)c(C)n2n1	-2.0%	-1.7%	3.1%	0.0%	?	2.6%
O=C(OCCOCCO)c1ccccc1Nc1cccc(C(F)(F)F)c1	.	.	.	.	-13.8%	.
CCN1CCN(C(=O)c2ccc3c(c2)N(Cc2c(F)cccc2Cl)C(=O)c2ccccc2S3)CC1	0.3%	-1.2%	7.1%	1.2%	-20.6%	-23.5%
CCCCOc1cccc(C(=O)Nc2cccc3ccc(C)nc23)c1	2.1%	-0.5%	4.3%	-10.6%	-8.6%	42.3%[activator]
Cc1cccc(C(=O)Nc2ccc(-c3nc4ncccc4o3)cc2C)c1	-0.7%	-0.7%	5.8%	-0.1%	?	32.6%[activator]
CC(C)CCOc1ccc(C(=O)Nc2sc3c(c2C#N)CCCCC3)cc1	-0.4%	0.1%	-14.4%	-1.0%	5.6%	-2.2%
Cc1ccc(NC(=O)CN2C(=O)c3ccccc3Sc3ccc(C(=O)N4CCOCC4)cc32)cc1C	-4.0%	1.2%	-27.6%	2.6%	-6.3%	-1.9%
Cc1nc2nc(SCC(=O)NC3CCC(C)CC3)nn2c(C)c1Cc1ccccc1Cl (stereo not drawn)	-7.9%	0.5%	48.1%[activator]	3.8%	-21.0%	25.0%
CCOC(=O)c1noc2ncnc(NCc3ccccc3OC)c12	-3.4%	-0.3%	1.1%	-1.7%	1.5%	4.8%
COc1cccc(CNC(=O)CN2C(=O)N(c3cc(C)ccc3C)S(=O)(=O)c3ccccc32)c1OC	-3.1%	-0.4%	0.3%	3.2%	-15.6%	-6.0%
Cc1ccc(-n2c3c(c(=O)[nH]c2=O)C(NS(=O)(=O)c2ccc(C)cc2)(C(F)(F)F)C(=O)N3)cc1 (stereo not drawn)	0.1%	-0.9%	-7.3%	0.2%	-8.4%	13.5%
Cc1ccc(C)c(NC(=O)C(CC(C)C)N2Cc3ccccc3C2=O)c1 (stereo not drawn)	-0.2%	-1.4%	-2.5%	2.4%	-2.5%	-23.6%
Cc1ccc2c(=O)cc(CSc3ncn[nH]3)[nH]c2c1C	-3.0%	-0.3%	21.8%	-2.5%	-16.9%	-4.9%
CN1C(=O)C2(c3ccccc31)N(c1cccc(F)c1)C(=O)CS2(=O)=O (stereo not drawn)	1.5%	0.9%	6.1%	2.5%	-18.3%	-3.5%
O=C1CS(=O)(=O)C2(C(=O)N(Cc3ccccc3Cl)c3ccccc32)N1c1ccc(F)cc1 (stereo not drawn)	-4.4%	-1.0%	1.7%	-0.4%	-14.9%	-1.0%
CCOC(=O)CSc1nc(-c2ccc(Cl)cc2)cc(C(F)(F)F)c1C#N	-4.3%	0.1%	-4.8%	5.7%	-16.2%	-12.8%

Some of the entries so far, with values under each structure:
Every second line gives: PTAP-TSG101 blk | B2AR arrestin ag | p53null 32C tox | GALK inh | FH mod | p53null 39C kill
CC(C)CCOc1ccc(C(=O)Nc2sc3c(c2C#N)CCCCC3)cc1
→ -0.4% | 0.1% | -14.4% | -1.0% | 5.6% | -2.2%
Cc1ccc(NC(=O)CN2C(=O)c3ccccc3Sc3ccc(C(=O)N4CCOCC4)cc32)cc1C
→ -4.0% | 1.2% | -27.6% | 2.6% | -6.3% | -1.9%
Cc1nc2nc(SCC(=O)NC3CCC(C)CC3)nn2c(C)c1Cc1ccccc1Cl (stereo not drawn)
→ -7.9% | 0.5% | 48.1%[activator] | 3.8% | -21.0% | 25.0%
CCOC(=O)c1noc2ncnc(NCc3ccccc3OC)c12
→ -3.4% | -0.3% | 1.1% | -1.7% | 1.5% | 4.8%

As entered above:
In PTAP-TSG101 blk, `O=C1CS(=O)(=O)C2(C(=O)N(Cc3ccccc3Cl)c3ccccc32)N1c1ccc(F)cc1` (stereo not drawn) is entered as -4.4%
In PTAP-TSG101 blk, `N#C/C(=C\c1ccc(Cl)cc1Cl)c1nc(-c2cccc(Cl)c2)cs1` is entered as -3.1%

Next compounds follow.
SMILES	PTAP-TSG101 blk	B2AR arrestin ag	p53null 32C tox	GALK inh	FH mod	p53null 39C kill
COc1ccccc1-c1cc2nc(C)c(CCC(=O)NCCc3cccc(C)c3)c(C)n2n1	-2.5%	0.4%	-2.8%	0.0%	-20.9%	7.0%
NC(CO)(CO)CCc1ccc(Sc2cccc(OCc3ccccc3)c2)cc1Cl	.	.	.	.	12.3%[53.3 µM]	.
CCOC(=O)c1c(C)oc2ncnc(N3CCN(c4ccccc4)CC3)c12	-8.6%	1.1%	-0.3%	-2.9%	-5.7%	-11.9%
Cc1ccc(Nc2sc(C(=O)c3ccccc3)c(N)c2C(=O)NC(C)C)cc1	0.8%	-2.9%	12.6%	-4.2%	?	3.1%
COC(=O)c1ccn(-c2nc(-c3ccc(Cl)cc3)cc(C(F)(F)F)n2)n1	-6.7%	?	-0.5%	-0.6%	-14.5%	8.9%
CCOC(=O)c1ccc(Nc2c(-c3ccc(O)cc3)nc3nc[nH]n23)cc1	-5.7%	-1.6%	0.3%	-1.0%	1.0%	-10.2%
CC(=O)c1cc(-c2ccc(F)cc2)n(CCC(=O)NC2CCCCC2)c1C	-1.5%	-1.3%	0.1%	1.3%	-1.1%	16.3%
Cc1ccc(-n2c3c(c(=O)[nH]c2=O)C(NC(=O)c2ccccc2C)(C(F)(F)F)C(=O)N3)cc1 (stereo not drawn)	-3.0%	0.0%	-0.8%	0.0%	-7.6%	?
CCOc1cccc2cc(-c3nc4ccc(C(=O)O)cc4[nH]3)c(=O)oc12	-6.6%	-1.9%	?	-0.4%	?	0.9%
COc1ccc(-c2cc(C(F)(F)F)nc(NCCc3ccccc3)n2)cc1	1.5%	0.6%	-6.6%	5.7%	-25.7%	-21.8%
COc1ccc(Cl)cc1NC(=O)c1cc(S(=O)(=O)N(C)Cc2ccccc2)ccc1F	-5.2%	-0.8%	-3.9%	2.4%	3.7%	22.9%
CN1C(=O)c2ccccc2-n2c(nc3ccccc3c2=O)/C1=C/c1ccccc1	.	.	.	.	-1.6%[53.3 µM]	.
Cc1ccc(CCNC(=O)c2cnc3c(-c4ccc(F)cc4)c(C)nn3c2C)cc1	0.0%	0.0%	-5.8%	3.6%	4.3%	-24.1%
Cc1nc2cnc3ccc(C#Cc4cccnc4)cc3c2n1-c1ccc(C(C)(C)C#N)cc1	.	.	.	.	14.9%	.
Cc1cc2c(cc1S(=O)(=O)NCc1ccc(F)cc1)OCC(=O)N2	-0.8%	-1.1%	-2.8%	1.1%	-3.3%	-12.8%
